Bioassay records: PubChem BioAssay, National Center for Advancing Translational Sciences (NCATS)
Cruzain inh noDet = cruzain (T. cruzi) inhibition without detergent | P25779 | purified cruzain, Z-FR-AMC fluorescence, no detergent | Potency, µM, for the others: max response, negative = inhibition, hits mostly inhibitors | hit rate 2.3% among 200,000;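 note: plate controls were enzyme without inhibitor for no effect and buffer without enzyme for full effect; nearly all actives have a fitted effect of over 40% in size; top concentration of the series not given in the record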
Target sequence (P25779 123-467 limits assumed): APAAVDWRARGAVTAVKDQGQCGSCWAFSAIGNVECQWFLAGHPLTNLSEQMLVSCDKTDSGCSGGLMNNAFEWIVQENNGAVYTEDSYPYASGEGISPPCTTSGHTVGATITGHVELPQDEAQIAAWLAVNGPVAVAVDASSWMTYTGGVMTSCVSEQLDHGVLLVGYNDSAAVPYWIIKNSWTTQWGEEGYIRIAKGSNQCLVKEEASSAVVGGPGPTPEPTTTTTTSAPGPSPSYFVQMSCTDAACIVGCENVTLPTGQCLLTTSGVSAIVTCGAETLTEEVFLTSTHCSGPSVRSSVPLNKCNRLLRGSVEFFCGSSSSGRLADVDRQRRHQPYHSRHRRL
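Purified cruzain at 1.5 nM, pre-incubated 15 min with compound at room temperature in 100 mM sodium acetate pH 5.5, 5 mM DTT, 0.00005% Triton X-100. Reaction started with 2 uM Z-FR-AMC; AMC fluorescence increase over 60 s gives rate.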
Lassa entry inh = Lassa virus entry inhibition; Lassa virus pseudotype entry inhibition, cell reporter; control for the full effect not named in the record; Potency, µM (highest dose often 37.9 µM), inactives show at the highest dose activity change, negative = inhibition, actives largely listed as inhibitors; hit rate 1.2% among 300,000; active means well fitted inhibition curve with a large enough effect; inconclusive means small, poorly fitted or top-dose-only effect, or effect the other way; inactive means flat fitted curve, though single readings scatter; tested in HEK293 cells; note: % is set by controls: 0 for no effect and ±100 for the full control effect; nearly all actives have a fitted effect of over 50% in size; luciferase read-out
Marburg entry inh = inhibitors of Marburg virus binding or cell entry | hit rate 1.8% among 300,000 | Marburg virus pseudotyped entry inhibition, cell reporter; control for the full effect not named in the record; about a third of the inactives were read at about 46 µM | Potency, µM (doses to about 37.8 µM), for inactives: top-dose activity change, negative = inhibition, actives largely listed as inhibitors | AID 540276; active = well fitted inhibition curve with a large enough effect; inconclusive = small, poorly fitted or top-dose-only effect, or effect the other way; inactive = flat fitted curve, though single readings scatter; tested in HEK293 cells; about a fifth of its hits are not listed in these tables; note: % is set by controls: 0 for no effect and ±100 for the full control effect; luciferase read-out
SARS PLP yeast = inhibitors of SARS-CoV papain-like protease in yeast; S. cerevisiae expressing SARS-CoV PLpro, growth rescue; control for the full effect not named in the record; Potency, µM (series often up to 32.9 µM), without a hit: at the highest dose activity, positive = growth rescue; hit rate 0.19% among 330,000; active means well fitted rising curve with a large enough effect; inconclusive means small, poorly fitted or top-dose-only effect; inactive means no such curve, though single readings can be large or run the other way; note: 0% is about no effect; nearly all actives have a fitted effect of over 55% in size; growth read by luminescence after 48 h
NS1 inh = inhibitors of influenza NS1 protein function | S. cerevisiae slowed by influenza A NS1, growth recovery by OD600 | Potency, µM (titrated, usually from 46.1 µM), for the others: at the top dose activity, positive = more growth | hit rate 0.4% among 270,000; active means well fitted rising curve with a large enough effect; inconclusive means small, poorly fitted or top-dose-only effect; inactive means no such curve, though single readings can be large or run the other way; note: nearly all actives have a fitted effect of over 50% in size
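In this qHTS, NS1 from influenza A is expressed in budding yeast, where it slows growth. Cells are switched from glucose to 2% galactose medium (pH 6.0, -URA), treated with compound, and growth recovery is read at OD600.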
Cruzain inh Det = blocks cruzain activity in presence of Triton detergent. P25779. purified cruzain, Z-FR-AMC fluorescence, 0.01% Triton. Potency, µM, inactives show max response, negative = inhibition, usual class: inhibitors. hit rate 0.43% among 200,000. AID 1478;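 note: plate controls were neutral wells for no effect and buffer without enzyme for full effect; nearly all actives have a fitted effect of over 40% in size; top concentration of the series not given in the record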
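Detergent-containing arm of a paired screen for aggregation-based inhibition: 0.01% Triton X-100 present. Cruzain at 1.5 nM cleaved 2 uM Z-FR-AMC at pH 5.5 with 5 mM DTT; AMC fluorescence gain over 60 s measured activity.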
2A StopGo = FMDV 2A StopGo reporter, luciferase signal; human cells with a luciferase reporter of 2A StopGo recoding; control for the full effect not named in the record; Potency, µM (doses to about 57.9 µM), without a hit: at the highest dose signal change, negative = less light; hit rate 1.2% among 410,000; active = well fitted falling curve with a large enough effect; inconclusive = small, poorly fitted or top-dose-only effect; inactive = no such curve, though single readings can be large or run the other way; tested in HEK293T cells; note: % is set by controls: 0 for no effect and ±100 for the full control effect; nearly all actives have a fitted effect of over 45% in size; luciferase light after 4 h
RE007 growth inh = less growth of the S. pombe RE007 Vpr strain; S. pombe RE007 Vpr strain, BacTiter-Glo ATP luminescence, 24 h; control for the full effect not named in the record; Potency, µM (highest dose often 92.2 µM), inactives show at the top dose activity change, negative = less growth; hit rate 0.21% among 360,000; AID 651644; active = well fitted falling curve with a large enough effect; inconclusive = small, poorly fitted or top-dose-only effect; inactive = no such curve, though single readings can be large or run the other way;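 note: % is set by controls: 0 for no effect and ±100 for the full control effect; nearly all actives have a fitted effect of over 50% in size; the assay follows cell death caused by Vpr and the record does not say whether a fall means rescue or toxicity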
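Fission yeast RE007 carrying one integrated HIV-1 vpr copy, seeded at OD 0.01 in PMG+AL medium with 23 nL pinned compound. Grown 24 h at 30 degrees; viability read by BacTiter-Glo luminescence after 5 min.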
Starred values were filed as active, the others as inactive; ? = inconclusive; . = no result given; & = joins results of further samples; [ ] = dose if it differs, or a comment. Unless noted, calls come from the whole dose curve; as a rule, active = well fitted curve in the direction sought with a large enough effect; inconclusive = small, poorly fitted or top-dose-only effect, or another doubt; inactive = no such curve, though single readings can be large; an effect the other way counts as inactive or inconclusive. Potency is the fitted concentration of half-maximal effect.

smiles,Cruzain inh noDet,Lassa entry inh,Marburg entry inh,SARS PLP yeast,NS1 inh,Cruzain inh Det,2A StopGo,RE007 growth inh
O=C(NCc1ccc(F)cc1)c1cc(-c2ccc(Cl)cc2)n[nH]1,7%,-26%[46.1 µM],.,.,.,-8.3%,16%,.
Cc1ccc(C(=O)Nc2cccc(-c3nc4cccnc4s3)c2C)cc1,-7%,?,.,.,.,-1.1%,-15%,.
N#Cc1c(NCCN)nc(-c2ccccc2)c2c1CCCC2,?,-11%,?,-1%,10%,-4.2%,-27%,2%
CCCC1(c2ccccc2)NC(=O)NC1=O (stereo unspecified),.,-1%[46.1 µM],9%[46.1 µM],-1%,-10%,.,-19%,-2%
O=C(Nc1cc([N+](=O)[O-])ccc1Cl)C1CC1,-1%,2%,31%,12%,4%,-0.1%,-13%,.
COc1ccc2c(CC(=O)NNC(=O)c3cccs3)coc2c1,.,-13%[46.1 µM],10%,3%,.,.,51%[activator],8%
COc1ccc(OC(=O)c2ccncc2)cc1,5%,1%,-1%,?,?,4.4%,-13%,-10%
O=S(=O)(c1ccccc1F)N1CCC(Oc2ccc(-n3cnnn3)cc2)CC1,-5%,?,-20%&-20%[46.1 µM],-1%,-11%,-5.2%,-6%&0%,5%
O=C(c1ccco1)N1CCN(C2CC(=O)N(c3ccccc3)C2=O)CC1 (stereo unspecified),12%,-10%,11%,-6%,9%,2.2%,-24%,-27%
Cc1ccc(S(=O)(=O)N(CC(=O)Nc2c(C)cccc2C)c2cccc(Cl)c2)cc1,-11%,-11%[46.1 µM],?,.,.,-4.7%,-15%,.
FC(F)(F)COc1ccc(-c2nnc(SCc3c(Cl)cccc3Cl)o2)cn1,.,-37%,-9%,1%,-2%,.,17%,4%
CCOC(=O)c1[nH]c(CSc2nnnn2-c2ccccc2C)c(C(=O)OCC)c1C,4%,?,-3%,-8%,-3%,-5.0%,-11%,-11%
N#C/C(=C\C=C\c1ccccc1)c1nc(-c2ccc3c(c2)OCO3)cs1,25µM*,0%,0%,21%,7%,-4.1%,-8%,0%
COc1ccccc1N(C)S(=O)(=O)c1ccc(C(=O)NCc2ccc3c(c2)OCO3)cc1,.,2%,?,-1%,.,.,?,-2%
COc1ccc(CNc2ccc3c(c2)nc(C)n3C)cc1,-9%,-28%,?,-5%,-11%,-1.2%,9%,-17%
Cc1nn(CCC(=O)N2CCN(c3ccccc3)CC2)c(C)c1S(=O)(=O)N1CCCC1,?,-3%[46.1 µM],.,.,.,1.4%,0%,.
COc1ccc(OCC(=O)N/N=C(\CCC(=O)O)c2cccs2)cc1,.,?,17%[46.1 µM],1%,.,.,16%,-12%
N#CCC(=O)Nc1ccc(C(=O)NNC(=S)NC2CCCCC2)cc1,.,11%,1%,1%,.,.,11%,6%
CCc1nc2c(sc3nc4c(cc32)COC(C)(C)C4)c(=O)n1Cc1ccco1,?,?,?,-6%,-13%,-19%,?,-20%
CCOC(=O)C1(Cc2ccccc2C)CCCN(C(=O)CCc2c(C)noc2C)C1 (stereo unspecified),.,-23%[46.1 µM],-26%[46.1 µM],-1%,-4%,.,-7%,-7%
COCCn1c(SCC(=O)c2[nH]c(C)c(C(C)=O)c2C)nc2ccccc2c1=O,.,.,.,-1%,-6%,.,26%,-22%
CCn1c(/C=C/c2ccc(O)c(O)c2)nc2ccccc2c1=O,.,.,.,4%,22%,.,-29%,7%
CCN(CC)CCCN1CC(O)=C(c2nc3ccccc3s2)C1=N,-3%,?,?,-2%,3%,-8.5%,?,-3%
Cc1ccc(C)c(N2CCN(C(=O)C34CC5CC(C3)CC(n3nnc(C)n3)(C5)C4)CC2)c1,.,?,?,-4%,1%,.,?,4%
O=C(Cc1ccccc1)N1CCN=C1SCc1ccc([N+](=O)[O-])cc1,8%,-2%,3%,4%,-14%,-6.9%,?,-15%
O=c1oc(-c2ccccc2Cl)nc2ccsc12,1%,-5%,-11%,-19%,-76%,-13%,-21%,?
CCOC(=O)CN1C(=O)C2Cc3ccccc3CN2C1=S (stereo unspecified),-8%,-1%,-20%,-3%,13%,1.0%,-7%,-10%
CCCNC(=O)N1c2ccccc2Sc2ccccc21,.,-2%,-29%,-1%,-5%,.,-25%,2%
CCOC(=O)CC(C#N)c1cn(C)c2ccccc12 (stereo unspecified),0%,19%,-18%,8%,6%,-0.4%,10%,4%
CC1CCN(c2csc3ccc(F)cc3c2=O)CC1,2%,26%[46.1 µM],.,.,.,-7.5%,22%,.
CCCCNC(=O)CCCCn1c(=S)[nH]c2c([nH]c3ccc(OC)cc32)c1=O,.,7%,?,2%,.,.,5%,3%
CC(=O)N1CCN(S(=O)(=O)c2cccc(C(=O)Nc3nc4ccccc4[nH]3)c2)CC1,9%,-1%,5%[46.1 µM],-3%,-6%,-1.8%,0%,16%
Cc1ccccc1OCC(=O)Nc1ccccc1C(=O)OCc1cc(=O)n2c(C)csc2n1,10%,10%[46.1 µM],.,.,.,-0.7%,?,.
CCOC(=O)N1CCN(c2c(NCCN3CCN(Cc4ccccc4)CC3)c(=O)c2=O)CC1,-15%,.,8%,-5%,-3%,0.0%,-4%,7%
Cn1ncc2cc(NC(=S)NC(=O)c3ccccc3)ccc21,-7%,?,-37%,3%,-12%,-0.3%,24%,5%
Clc1ccc(C2[C@H]3CN(Cc4cccnc4)[C@H](c4ccccc4)C34CC2(c2cccnc2)C4)cn1 (stereo partly specified),-4%,.,.,1%,-5%,0.7%,?,-4%
CCc1ccccc1N(C)S(=O)(=O)c1ccc2c(c1)C(C)(C)C(=O)N2C,25%,1%[46.1 µM],.,.,.,-6.4%,-23%,.
CC(C)Oc1ccc(N2CC(C(=O)Nc3ccccn3)CC2=O)cc1 (stereo unspecified),.,.,.,0%,3%,.,4%,16%
Clc1ccc(-c2nnc3sc(-c4ccc(Br)o4)nn23)c(Cl)c1,20µM*,0%,-1%,?,3%,-0.6%,-9%,7%
COc1ccc(S(=O)(=O)CCC(=O)NCc2ccc(C)o2)cc1,.,.,.,8%,14%,.,-21%,-21%
CCOC(=O)c1c(NC(=O)CSc2nnc(CNc3ccc(F)cc3)o2)sc(C(C)=O)c1C,11%,14%,2%&2%[46.1 µM],-7%,-20%,-14%,?,-8%
Cn1c2c(c(=O)n(C)c1=O)C(NS(=O)(=O)c1ccc(Cl)cc1)(C(F)(F)F)C(=O)N2 (stereo unspecified),-8%,3%,-5%,11%,5%,-9.8%,-22%,2%
Cc1cc2c3c([nH]c2cc1S(=O)(=O)N1CCC2(CC1)OCCO2)CCCC3=O,.,.,.,-3%,0%,.,-17%,0%
Cc1nc(C)n(CC(=O)N2CCCC(C(=O)c3ccc(Cl)cc3C)C2)n1 (stereo unspecified),.,14%,-1%,0%,-1%,.,-9%,4%
COC(=O)c1ccccc1NC(=O)Cn1c(CCC(=O)O)ccc1-c1ccc(C)cc1,2%,6%[46.1 µM],-5%[46.1 µM],.,.,-9.0%,7%,.
Cc1ccc(C(C(=O)NC2CCCC2)N(Cc2ccc(F)cc2)C(=O)c2snc(C(N)=O)c2N)o1 (stereo unspecified),.,-19%[46.1 µM],?,0%,3%,.,19%,7%
CCOc1ccc(CCNC(=O)c2ccc(S(=O)(=O)N3CCCC3)cc2)cc1OCC,.,?,-27%[46.1 µM],-1%,.,.,?,13%
O=C(NCc1ccc(Cl)cc1)c1ccc2c(=O)n(CC3CCCO3)c(=S)[nH]c2c1 (stereo unspecified),.,?,8%[46.1 µM],1%,-5%,.,18µM*,-19%
CCOC(=O)N1CCc2c(sc3ncn(Cc4ccc(F)cc4)c(=O)c23)C1,.,?,0%[46.1 µM],1%,-2%,.,?,-23%
CCc1nc2ccc(C(=O)NCCCN3CCN(c4ccc(F)cc4)CC3)cc2nc1CC,.,?,?,2%,1%,.,0%,13%

Further structures follow:
smiles,Cruzain inh noDet,Lassa entry inh,Marburg entry inh,SARS PLP yeast,NS1 inh,Cruzain inh Det,2A StopGo,RE007 growth inh
COc1ccc(NC(=S)Nc2ccccc2SC)c(OC)c1,.,4%,-1%[46.1 µM],-2%,0%,.,42%[activator],4%
NC(=O)CSc1nnc([C@@H](N)Cc2c[nH]c3ccccc23)o1,10µM*,-6%,?,-3%,12%,8.9µM*,26%,5%
N#CC1(Cc2ccccc2Cl)c2ccccc2C=CN1C(=O)c1ccccc1 (stereo unspecified),?,?,-22%,-15%,7%,1.5%,18%,1%
Cc1c(Cl)c([N+](=O)[O-])nn1CCCC(=O)N1CCN(c2ccccc2)CC1,-9%,-22%,?,2%,-4%,1.4%,-21%,-5%
O=C(CN1CCN(S(=O)(=O)N2CCCCC2)CC1)Nc1ccc(Cl)c(Cl)c1,.,?,-13%[46.1 µM],-8%,-74%,.,?,-8%
O=C(CCOc1ccccc1)N(Cc1cccnc1)c1nc2ccc(Cl)cc2s1,-10%,-6%[46.1 µM],.,.,.,-5.3%,-4%,.
O=C1CCCN2N=C(SCC(=O)Nc3cccc(C(F)(F)F)c3)SC2=N1,.,-29%[46.1 µM],?,1%,-7%,.,-14%,0%

Retrieved by structure from the entries so far, 2 records:
smiles,Cruzain inh noDet,Lassa entry inh,Marburg entry inh,SARS PLP yeast,NS1 inh,Cruzain inh Det,2A StopGo,RE007 growth inh
O=C(CCOc1ccccc1)N(Cc1cccnc1)c1nc2ccc(Cl)cc2s1,-10%,-6%[46.1 µM],.,.,.,-5.3%,-4%,.
N#CC1(Cc2ccccc2Cl)c2ccccc2C=CN1C(=O)c1ccccc1 (stereo unspecified),?,?,-22%,-15%,7%,1.5%,18%,1%

Rows are unselected; about 4.7% have a hit in one of these screens.
